# Hedgehog inh – Sonic Hedgehog pathway inhibition; 22,000 compounds, 2.1% hits; inhibition, % (no concentration beside the values); AID 2313; Shh-LIGHT2 Gli-luciferase reporter, 30 h;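 active = replicate mean of 65% or more; inconclusive = mean lower but half the replicates past it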;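 also: pathway switched on by Shh-conditioned medium diluted 1 in 25 in low serum; 100 nL library stock added to about 40 µL; 0% = median of neutral wells and 100% = positive control level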
# YB-1 expr inh – YB-1 expression inhibition; U2OS, qRT-PCR YB-1 vs CDIP delta delta Cp, 16 h; hits give high values; zero = DMSO, each unit about twofold; delta delta Cp (YB-1 minus CDIP) (concentration not given with the values); 30,000 compounds, 0.37% hits; AID 434959;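 active = delta delta Cp rounded down to an integer at or above 3, about 3 SD of DMSO wells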;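 also: higher means less YB-1 transcript or more CDIP transcript relative to DMSO; stock transfer was 100 nL into about 100 µL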
# MITF inh – inhibitors of MITF. 37,000 compounds, 0.28% hits. AID 2240. TRPM1 promoter luciferase, luminescence, 24 h. inhibition, % (test concentration not listed);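 active = most replicates at 85% or more, or half of them and the mean; inconclusive = half reach 85% but not the mean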;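 also: human melanocyte line stably carrying TRPM1 promoter luciferase reporter; 0% = vehicle wells and 100% = a positive control; the first replicate is given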
# PD-1 reverse act – activators reversing PD-1 mediated T-cell inhibition; 29,000 tested, under 10 active; primary human CD4 T cells, PD-L1 beads, CellTiter-Glo 96 h; activation, % (test concentration not listed);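 active = replicate mean of 50% or more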;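 also: 0% = median vehicle wells and 100% = positive control; 100 nL library stock added to about 50 µL; numbers are from one replicate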
# Starred values were filed as active, the others as inactive; ? = inconclusive; . = no result given. Only part of the results is shown. The share of hits here may be higher or lower than overall.
# Every second line gives: Hedgehog inh	YB-1 expr inh	MITF inh	PD-1 reverse act
> C[C@H]1CN([C@@H](C)CO)C(=O)Cc2cc(NS(=O)(=O)c3ccccc3)ccc2O[C@H]1CN(C)C(=O)NC1CCCCC1
 : 9	0.044	-1	1.2
> C[C@H]1CN([C@@H](C)CO)C(=O)Cc2cc(NC(=O)Nc3ccc(F)cc3)ccc2O[C@@H]1CN(C)Cc1ccc(C(=O)Nc2ccccc2N)cc1
 : .	0.2	-22	-0.8
> CSc1n[nH]c(-c2cccc(Cl)c2)c1C#N
 : .	-0.0013	-1	0.2
> COc1ccc(S(=O)(=O)Nc2cccc3c2O[C@H](CN(C)C(=O)NC2CCCCC2)[C@H](C)CN([C@@H](C)CO)C3=O)cc1
 : 1	-0.12	-12	0.4
> COc1ccc(S(=O)(=O)N(C)C[C@@H]2Oc3ccc(NS(C)(=O)=O)cc3C(=O)N([C@H](C)CO)C[C@@H]2C)cc1
 : .	-0.47	-20	3.8
> COCc1[nH]c(=S)[nH]c(=O)c1Cc1c(F)cccc1Cl
 : .	-1.5	7	-0.3
> CCn1c(SCc2nc3ccccc3c(=O)[nH]2)nnc1-c1cc2cccc(OC)c2o1
 : .	.	-6	0.2
> C[C@@H]1CN([C@@H](C)CO)C(=O)c2cc(NS(=O)(=O)c3ccc(Cl)cc3)ccc2O[C@@H]1CN(C)CC1CC1
 : -39	-0.15	0	0.1
> O=c1[nH]ncc(NCC2CCCO2)c1Cl (stereo unspecified)
 : ?	0.27	7	-1.4
> COc1ccc(-c2nnc(SCCC(=O)O)n2-c2ccccc2)cc1
 : .	.	-4	0.9
> COc1ccc(S(=O)(=O)Nc2ccc3c(c2)C(=O)N([C@H](C)CO)C[C@H](C)[C@H](CN(C)C(=O)Nc2c(C)noc2C)O3)cc1
 : -12	0.36	1	0.8
> C[C@@H]1CN([C@@H](C)CO)C(=O)c2cccc(NC(=O)NC3CCCCC3)c2O[C@@H]1CN(C)S(=O)(=O)c1ccc(F)cc1
 : -45	-0.59	8	-6.7
> CC1=C[C@H](O)[C@H]2C(C)(C)CCC[C@]2(C)[C@@]1(O)CO
 : 5	0.2	-6	0.4
> C[C@H]1CN([C@@H](C)CO)C(=O)c2cc(NC(=O)C3CCCCC3)ccc2O[C@H]1CN(C)S(=O)(=O)c1ccc(F)cc1
 : .	-0.45	4	-1.2
> COC1C(OC)N(S(=O)(=O)c2ccc(C)cc2)CCN1S(=O)(=O)c1ccc(C)cc1 (stereo unspecified)
 : 15	-0.34	-2	-2.8
> C[C@H](CO)N1C[C@H](C)[C@H](CN(C)C(=O)Nc2cccc3ccccc23)Oc2ccc(NC(=O)C3CC3)cc2CC1=O
 : -21	-0.069	5	0.9
> O=C(CCc1nc(-c2ccc(Cl)cc2)no1)NCC1CCCO1 (stereo unspecified)
 : .	.	0	0.5
> COc1cc(OC)c(NC(=O)CSc2nnc(-c3ccccc3)n2-c2ccccc2)cc1Cl
 : .	.	38	0.8
> Cc1ccc2nc(-c3ccc(NC(=O)CSc4nncn4C)cc3)sc2c1
 : .	.	13	0.9
> C[C@@H]1CN([C@H](C)CO)C(=O)Cc2cc(NC(=O)Nc3ccccc3)ccc2O[C@@H]1CN(C)Cc1ccccc1
 : 30	-0.62	-7	1.4
> COc1ccc(-c2nnc(SCC(=O)Nc3c(C)n[nH]c3C)n2-c2ccccc2)cc1OC
 : .	.	-2	0.8
> C[C@@H]1CN([C@@H](C)CO)C(=O)c2cccc(NC(=O)Nc3ccc4c(c3)OCO4)c2O[C@H]1CN(C)C(=O)Nc1ccc(C(F)(F)F)cc1
 : -66	0.045	-4	-1.7
> C[C@@H]1CN([C@@H](C)CO)C(=O)c2cccc(NC(=O)c3ccncc3)c2O[C@H]1CN(C)S(=O)(=O)c1ccccc1
 : 13	-0.28	1	.
> NNC(=O)c1cccc(Cn2cccn2)c1
 : -2	-0.25	-8	0.3
> Cc1ccc(S(=O)(=O)N(C)C[C@H]2Oc3ccc(NS(=O)(=O)c4ccccc4)cc3CC(=O)N([C@@H](C)CO)C[C@H]2C)cc1
 : ?	0.36	-6	-0.7
> CNC[C@@H]1Oc2c(NC(=O)c3ccc(-c4nccs4)cc3)cccc2C(=O)N([C@@H](C)CO)C[C@@H]1C
 : -2	-0.12	-8	1.4
> COc1cccc(OC)c1C(=O)NC(=S)NCc1ccco1
 : .	.	-10	1.6
> Cc1nc2ccccn2c1-c1csc(Nc2cccc(C(=O)O)c2)n1
 : .	.	4	3.1
> CSc1ccccc1NC(=O)C(C)N(c1ccccc1)S(C)(=O)=O (stereo unspecified)
 : .	.	-2	-0.6
> CC(=O)c1cccc(NC(=O)CSC2=C(C#N)C(c3ccccc3C)C3=C(CCCC3=O)N2)c1 (stereo unspecified)
 : .	.	37	-5.8
> C[C@@H]1CN([C@@H](C)CO)C(=O)c2cc(NC(=O)Nc3ccc(C(F)(F)F)cc3)ccc2O[C@H]1CN(C)C(=O)NC1CCCCC1
 : .	-0.26	-7	-2.2
> Fc1ccc(-c2nc3n(c2-c2ccncc2)CCS3)cc1
 : -13	0.1	1	1.3
> C[C@@H]1CN([C@@H](C)CO)C(=O)c2cc(NC(=O)C3CCCCC3)ccc2O[C@@H]1CN(C)Cc1ccc(Oc2ccccc2)cc1
 : 39	-0.68	4	0.1
> O=C1CNC(=S)N1Cc1ccccc1Cl
 : -34	-0.62	11	-4.2
> C[C@H](CO)N1C[C@H](C)[C@@H](CN(C)Cc2ccc(-c3ccccc3)cc2)Oc2c(NC(=O)Nc3ccc(F)cc3)cccc2C1=O
 : -2	0.49	3	-0.5
> N#CCS(=O)c1ccccc1 (stereo unspecified)
 : -27	0.12	-8	0.6
> COc1ccc(Cl)cc1NC(=O)CN(C)S(=O)(=O)c1cc(C)ccc1OC
 : .	.	-1	-1.0
> C[C@H](CO)N1C[C@H](C)[C@H](CN(C)Cc2ccc3c(c2)OCO3)Oc2c(NC(=O)c3ccncc3)cccc2C1=O
 : -1	-0.1	-3	0.4
> Cc1cc(NC(=O)CSc2nc3ccccc3[nH]2)ccc1Br
 : .	.	-28	-2.9
> Cc1noc(C)c1S(=O)(=O)Nc1ccc2c(c1)C(=O)N([C@H](C)CO)C[C@H](C)[C@H](CN(C)C(=O)NC1CCCCC1)O2
 : .	0.48	-11	.
> C[C@H]1CN([C@@H](C)CO)C(=O)Cc2cc(NS(=O)(=O)c3ccccc3)ccc2O[C@@H]1CN(C)Cc1ccc2c(c1)OCO2
 : 13	0.3	9	.
> C[C@@H]1CN([C@H](C)CO)C(=O)c2cc(NC(=O)C3CCCCC3)ccc2O[C@H]1CN(C)S(C)(=O)=O
 : .	0.11	-1	-1.5
> C[C@@H]1CN([C@@H](C)CO)C(=O)c2cccc(NC(=O)C3CCOCC3)c2O[C@@H]1CN(C)S(=O)(=O)c1ccc(F)cc1
 : -20	0.021	-7	1.1
> C[C@H]1CN([C@@H](C)CO)C(=O)c2cc(NS(=O)(=O)c3ccc(F)cc3)ccc2O[C@H]1CN(C)Cc1ccccc1
 : 31	-0.0058	2	-0.5
> Cc1cc(Cl)cc(Cl)c1OCC(=O)Nc1ccccc1[N+](=O)[O-]
 : .	.	-2	1.3
> C[C@@H]1CN([C@@H](C)CO)C(=O)c2cccc(NC(=O)Nc3ccccc3)c2O[C@@H]1CN(C)C(=O)Nc1ccccc1
 : -4	1.2	-12	-0.9
> COc1ccccc1NC(=O)COc1ccc(C(=O)Nc2cccc(C(F)(F)F)c2)cc1
 : .	.	14	4.8
> COc1ccc(CN(C)C[C@H]2Oc3ccc(NC(=O)CCC(F)(F)F)cc3CC(=O)N([C@@H](C)CO)C[C@H]2C)cc1
 : -29	-0.068	1	.
> Cc1noc(C)c1NC(=O)Nc1ccc2c(c1)C(=O)N([C@@H](C)CO)C[C@H](C)[C@@H](CN(C)C(=O)Nc1c(C)noc1C)O2
 : -29	0.013	-3	.
> O=C(c1cc2cc(Br)ccc2oc1=O)N1CCOCC1
 : 16	-0.2	11	-0.1
> Cc1noc(C)c1S(=O)(=O)Nc1ccc2c(c1)C(=O)N([C@H](C)CO)C[C@H](C)[C@H](CN(C)CC1CCCCC1)OCCCC[C@@H](C)O2
 : 3	-0.43	-6	-1.9
> Cc1noc(C)c1NC(=O)N(C)C[C@@H]1Oc2ccc(NS(=O)(=O)c3cn(C)cn3)cc2C(=O)N([C@@H](C)CO)C[C@H]1C
 : -22	-0.23	0	0.0
> Clc1ccc(-n2c(SCc3nc4ccccc4[nH]3)nnc2-c2ccncc2)cc1
 : .	.	28	0.1
> C[C@@H]1CN([C@@H](C)CO)C(=O)c2cc(NC(=O)Nc3cccc4ccccc34)ccc2O[C@H]1CN(C)C(=O)NC1CCCCC1
 : -12	0.076	5	0.5
> C[C@@H]1CN([C@H](C)CO)C(=O)c2cc(NC(=O)Nc3ccc4c(c3)OCO4)ccc2O[C@H]1CN(C)C(=O)Nc1cccc2ccccc12
 : -11	-0.2	2	-0.7
> Cc1ccc(-c2nc3ccccc3[nH]2)cc1NC(=O)COc1ccccc1[N+](=O)[O-]
 : .	.	86*	-14
> COc1cc(C(C)=O)cc(OC)c1O
 : -25	0.25	-6	.
> C[C@@H]1CN([C@@H](C)CO)C(=O)Cc2cc(NC(=O)Nc3ccc(F)cc3)ccc2O[C@@H]1CN(C)C(=O)Nc1ccc2c(c1)OCO2
 : .	0.033	-3	.
> CNC[C@H]1Oc2ccc(NC(=O)CCC(F)(F)F)cc2C(=O)N([C@@H](C)CO)C[C@@H]1C
 : .	-0.45	-5	5.6
> CNC[C@H]1Oc2ccc(NC(=O)Nc3cccc4ccccc34)cc2CC(=O)N([C@H](C)CO)C[C@H]1C
 : 2	0.35	1	0.7

# At a glance, some entries already given:
# Every second line gives: Hedgehog inh	YB-1 expr inh	MITF inh	PD-1 reverse act
> C[C@@H]1CN([C@@H](C)CO)C(=O)c2cc(NC(=O)Nc3ccc(C(F)(F)F)cc3)ccc2O[C@H]1CN(C)C(=O)NC1CCCCC1
 : .	-0.26	-7	-2.2
> Fc1ccc(-c2nc3n(c2-c2ccncc2)CCS3)cc1
 : -13	0.1	1	1.3
> C[C@@H]1CN([C@@H](C)CO)C(=O)c2cc(NC(=O)C3CCCCC3)ccc2O[C@@H]1CN(C)Cc1ccc(Oc2ccccc2)cc1
 : 39	-0.68	4	0.1
> O=C1CNC(=S)N1Cc1ccccc1Cl
 : -34	-0.62	11	-4.2

# Further records follow.
# Every second line gives: Hedgehog inh	YB-1 expr inh	MITF inh	PD-1 reverse act
> C[C@@H]1CN([C@H](C)CO)C(=O)c2cc(NS(=O)(=O)c3cn(C)cn3)ccc2O[C@H]1CN(C)Cc1ccccc1
 : .	0.091	6	2.9
> C[C@H](CO)N1C[C@H](C)[C@H](CN(C)Cc2ccc3c(c2)OCO3)Oc2c(NS(=O)(=O)c3ccc(F)cc3)cccc2C1=O
 : -51	-0.69	-19	-0.9
> Cc1ccc(S(=O)(=O)Nc2ccc3c(c2)C(=O)N([C@H](C)CO)C[C@H](C)[C@H](CN(C)S(=O)(=O)c2ccc(F)cc2)OCCCC[C@@H](C)O3)cc1
 : -18	-0.31	24	.
> C[C@@H]1CN([C@H](C)CO)C(=O)c2cc(NC(=O)Nc3cccc4ccccc34)ccc2O[C@@H]1CN(C)C(=O)NC1CCCCC1
 : -5	-0.027	-12	-0.4
> Cc1noc(C)c1S(=O)(=O)Nc1ccc2c(c1)CC(=O)N([C@H](C)CO)C[C@@H](C)[C@H](CN(C)C(=O)Nc1ccc(C(F)(F)F)cc1)O2
 : .	-0.43	7	.
> C[C@H]1CN([C@@H](C)CO)C(=O)c2cccc(NC(=O)Nc3ccc4c(c3)OCO4)c2O[C@@H]1CN(C)C(=O)Nc1ccc(F)cc1
 : 5	0.39	-20	.
> O=c1c2ccccc2[nH]c(=S)n1CCN1CCC(=C(c2ccc(F)cc2)c2ccc(F)cc2)CC1
 : -5	0.18	2	-0.1
> O=c1c(O[C@@H]2OC[C@H](O)[C@H](O)[C@H]2O)c(-c2ccc(O)cc2)oc2cc(O)cc(O)c12
 : -16	-0.62	1	3.3
> Cc1noc(C)c1NC(=O)Nc1ccc2c(c1)C(=O)N([C@@H](C)CO)C[C@H](C)[C@@H](CN(C)C(=O)Nc1ccc3c(c1)OCO3)O2
 : 23	-0.24	1	1.8
> C[C@@H]1CN([C@@H](C)CO)C(=O)c2cc(NS(=O)(=O)c3cn(C)cn3)ccc2O[C@H]1CN(C)S(=O)(=O)c1cccs1
 : .	-0.09	-11	2.7
> c1cnc(SCCCCOc2ccc3c(c2)CCC3)nc1
 : .	.	-56	1.6
> C[C@@H]1CCCCO[C@H](CN(C)C(=O)Nc2ccc3c(c2)OCO3)[C@@H](C)CN([C@H](C)CO)C(=O)c2cc(N(C)C)ccc2O1
 : 12	0.049	-8	0.4
> C[C@@H]1CCCCO[C@@H](CN(C)C(=O)Nc2ccc(F)cc2)[C@@H](C)CN([C@H](C)CO)C(=O)c2cc(NC(=O)NC3CCCCC3)ccc2O1
 : -21	-0.46	12	-1.0
> Cc1cc([N+](=O)[O-])nn1CC(=O)NCc1ccccc1
 : .	.	-6	1.0
> Cc1ccc(S(=O)(=O)N(C)C[C@@H]2Oc3c(NC(=O)CCCCCC(=O)Nc4ccccc4N)cccc3C(=O)N([C@@H](C)CO)C[C@H]2C)cc1
 : .	-0.59	-3	-0.1

# Screening data (PubChem)
